BasE inh = BasE siderophore enzyme inhibitors, primary screen, biochemical, Acinetobacter baumannii ATCC 17978, fluorescence polarization | actives 0.1% (n = 84,000) | inhibition, % (test concentration not listed) | purified BasE, fluorescence polarization binding displacement;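 active means both replicates above 25% with normal brightness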;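 further: 0% = negative plate control signal and 100% = positive plate control signal; stock transfer was 100 nL into about 30 µL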
KSHV LANA nucl = inhibitors of KSHV LANA-nucleosome binding, primary screen, biochemical, fluorescence polarization, FITC-LANA1-23, chicken nucleosomes; FITC-LANA1-23 / chicken nucleosome fluorescence polarization; active compounds read low; z-score (concentration not given with the values); actives 0.3% (n = 51,000);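 active means both repeat wells score below -2 in polarization z-score versus plate sample wells, excluding overly bright wells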;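 further: 100 nL library stock added to about 30 µL; numbers are from one replicate; some results filed as inactive read as strong as hits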
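test system = FITC-LANA peptide and chicken nucleosomes | amount = 240 nM purified chicken nucleosomes (480 nM peptide binding sites), final | reagent = 50 nM FITC-LANA1-23 probe | medium = TEN-BT buffer, pH 7.5 | doses = single compound addition by pin transfer, 100 nL per well | timing = 10–45 min, room temperature | detection = fluorescence polarization | repeats = duplicate plates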
Starred values were filed as active, the others as inactive; nt = not tested or not shown; & = joins results of further samples. A portion of the library; the hit share may differ from the screen's.

Below each compound – BasE inh | KSHV LANA nucl
> CC1=CCC(c2cnc(-c3ccccc3)c(C)c2)N(C)C1c1ccccc1 (configuration not stated)
  -0.7 | nt
> O=C(NC1CCN(C(=O)c2ccc(Cl)cc2Cl)CC1)c1ccccc1
  1.9 | nt
> CCn1c(=S)[nH]c2cc3ccccc3cc2c1=O
  1.5 | nt
> CCOC(=O)N1CCN(C(=O)c2ccc3c(c2)NC(=O)/C(=C/c2ccccc2)S3)CC1
  3.8 | 0.234
> O=C(O)CNS(=O)(=O)Cc1ccccc1
  3.7 | nt
> Cc1noc(C)c1CSc1ccc(Br)cc1
  nt | -1.1
> C=CCNC(=O)CSc1nc2ccccc2o1
  0.6 | nt
> CCS(=O)(=O)CCn1c([N+](=O)[O-])cnc1C
  0.3&-0.7 | 0.235&-0.068&-0.649&-0.185&0.227
> C/C(=N\O)C(=O)OC1CC(C)CCC1C(C)C (configuration not stated)
  -0.6 | -0.539
> CNC(=S)Nc1cc(C)ccn1
  1.4 | nt
> CNC(=O)c1ccc(N2CCSc3ccccc32)s1
  4.8 | 0.0065
> CN1C2CC(OC(=O)[C@H](CO)c3ccccc3)C[C@H]1[C@H]1OC21 (some centres not stated)
  0.0 | -0.112&-0.616
> O=S(=O)(c1ccc(N=C=S)cc1)N1CCOCC1
  2.3 | nt
> CN1C(=O)CSc2ccc(NC(=O)N3CCC(N4CCCCC4)CC3)cc21
  -2.4 | 0.247
> Cc1ccccc1-c1nnc(C2CCN(S(=O)(=O)c3ccc4c(c3)CCCC4)CC2)o1
  1.5 | -0.627
> CCc1nn(CC(=O)NCCc2ccc(OC)cc2OC)c(=O)c2cc3sc(C)cc3n12
  -3.4 | -0.342
> CC1=C(c2ccccc2)S(=O)(=O)NC1=NCCCN1CC(C)CC(C)C1 (configuration not stated)
  0.6 | -0.206
> Cc1cc(-c2ccccc2)oc2cc3ccccc3c1-2
  -1.5 | nt
> CCOC(=O)c1cccc2c1-c1ccccc1/C2=N/O
  1.3 | nt
> CCN(CC)c1nc2ccccc2n1Cc1ccc(Cl)cc1
  2.4 | nt
> COc1ccccc1C(=O)Nc1c2c(nn1-c1ccc(Oc3ccccc3)cc1)CSC2
  -0.7 | nt
> Cc1cc(C(=O)CSc2nncn2C)c(C)n1CCc1ccc(Cl)cc1
  -1.8 | nt
> CCN1CCCC1CNC(C)C(=O)NC1CCCC1 (configuration not stated)
  -1.0 | nt
> CSc1cccc(NC(N)=O)c1
  1.4 | nt
> NC(=O)C1CCN(c2nc3c(S(=O)(=O)c4ccc(Br)cc4)nnn3c3ccccc23)CC1
  -0.7 | 0.224
> CN1CCN2c3ncccc3Cc3ccccc3C2C1 (configuration not stated)
  nt | -1.03
> Fc1cccc(Cl)c1CSc1nnc(-c2c[nH]c3ccccc23)o1
  -2.5 | nt
> CC(C)(C)OC(=O)CN1C(=O)S/C(=C/c2cccs2)C1=O
  0.4 | 0.062
> CC1=CC(=O)N(c2ccc(C3CCCCC3)cc2)C1=O
  0.8 | -0.118
> Cc1cc(C)n2c(Nc3c(C)cccc3C)c(-c3ccc(C)o3)nc2n1
  2.1 | -0.0745
> COCC(C)n1c(=S)nnc2c3ccccc3[nH]c21 (configuration not stated)
  2.2 | nt
> O=C1CCC(N2C(=O)c3ccccc3C2=O)C(=O)N1 (configuration not stated)
  3.8&-1.7&-1.0 | -0.0175&0.989&0.232&0.254&-0.432
> O=C(CSc1nnc(C2CC2)n1C1CC1)c1cc(Cl)sc1Cl
  2.1 | nt
> COc1ccccc1CN=C1NC(=O)C(CC(=O)Nc2ccc(OC)c(OC)c2)S1 (configuration not stated)
  -1.3 | nt
> CC1(C)OC(=O)C(=C2CCCCCN2)C(=O)O1
  0.1 | -1.17
> Cc1[nH]c(=O)[nH]c(=O)c1Cc1cccc2ccccc12
  0.2 | -0.952
> C/C(=N\NC(=O)c1sc2ccccc2c1Cl)c1ccco1
  -2.4 | 0.21
> CCCCc1nnc(NC(=O)c2c(OC)cccc2OC)s1
  -3.8 | 0.061
> CC(C)NC(=O)c1ccc(COCC(F)(F)F)cc1
  0.6 | 0.087
> CCCCn1nc(C(=O)Nc2nc(SC)ns2)ccc1=O
  2.0 | nt

Brought forward from above: 4 entries, followed by the next part.
Below each compound – BasE inh | KSHV LANA nucl
> C/C(=N\NC(=O)c1sc2ccccc2c1Cl)c1ccco1
  -2.4 | 0.21
> CCCCc1nnc(NC(=O)c2c(OC)cccc2OC)s1
  -3.8 | 0.061
> CC(C)NC(=O)c1ccc(COCC(F)(F)F)cc1
  0.6 | 0.087
> CCCCn1nc(C(=O)Nc2nc(SC)ns2)ccc1=O
  2.0 | nt
> CCSc1nnc2c(n1)OC1(CCCC1)Nc1ccccc1-2
  6.8 | 0.227
> Cc1c(C(=O)NNc2ncnc3sc4c(c23)CCCC4)oc2ccccc12
  0.7 | nt
> COC(=O)/C(C#N)=C(\C)N
  -0.8 | nt
> Cc1cc2cc(C(=O)O)ccc2o1
  1.9 | 2.96
> CCc1nnc(NC(=O)C(CC(C)C)N2C(=O)c3ccccc3C2=O)s1 (configuration not stated)
  -0.7 | nt
> Cc1ccc(CN2C(=O)COc3cc(NC(=O)c4ccncc4)ccc32)cc1
  2.9 | 0.053
> CSc1cccc(N2CC(C(=O)N3CCCCC3C(N)=O)CC2=O)c1 (configuration not stated)
  0.3 | nt
> O=C(NCCc1ccccc1)c1ccccc1CN1C(=O)c2ccccc2C1=O
  1.8 | nt
> Cc1cc(C(=O)COc2ccc(-n3ccnc3)cc2)c(C)n1-c1ccc2c(c1)OCO2
  3.3 | nt
> NS(=O)(=O)c1ccc(CNC(=S)NC2CCCC2)cc1
  2.2 | -0.209
> Cc1cc2nc(N)nc(N)n2n1
  3.5 | 0.176
> COc1ccc(NC(=O)C2=CC(c3cccc(OC)c3)=NS(=O)(=O)N2C)cc1
  1.3 | -0.105
> COCCN=Cc1c(NCCOC)nc2ccccn2c1=O
  0.3 | -0.952
> Cc1cc(/C=N/NC(=S)NC(C)C)c(C)n1CC(C)C
  2.2 | nt
> CCOC(=O)c1c(NC(=O)CSc2nnc(-c3cccnc3)n2N)sc(C(=O)N(C)C)c1C
  1.2 | nt
> CC1CCCCN1C(=O)CCS(=O)(=O)c1ccc2c(c1)NC(=O)CO2 (configuration not stated)
  1.9 | -1.44
> Cc1nc2ccccc2n1CCNC(=O)NC1CCCCC1
  -1.3 | nt
> CS(=O)(=O)N1CCN(C(=O)Cc2ccc(-c3ccccc3)cc2)CC1
  1.9 | 0.04
> Cc1cc(C(=O)COC(=O)c2ccc(S(=O)(=O)N3CCCCC3)cc2)c(C)n1CC1CCCO1 (configuration not stated)
  0.2 | nt
> NC1=NC(=O)C(CC(=O)Nc2cccc(C(F)(F)F)c2)S1 (configuration not stated)
  3.5 | -0.762
> C=CCC(Nc1ccccc1C)c1ccc(Cl)cc1 (configuration not stated)
  1.9 | nt
> O=C(Nc1ccc(C(F)(F)F)cc1)C1CCc2ccccc2O1 (configuration not stated)
  1.7 | nt
> CCn1c(Cc2ccccc2)nnc1SCC(=O)N(C)C1CCCCC1
  -0.7 | -1.65
> COc1ccccc1C1=NOC(C(=O)NCCCn2ccnc2)C1 (configuration not stated)
  0.5 | -1
> CC1CC(C)CN(C(=O)C(C)Sc2nnc(N)s2)C1 (configuration not stated)
  1.0 | nt
> Cc1ccc(NC(=O)CN(C)C(=S)NC2CC2)cc1
  1.9 | nt
> COC(=O)Cc1c(C(=O)OC)sc(N)c1C(=O)OC
  1.0 | nt
> COc1cc(C(=O)Oc2ccc(-c3nnco3)cc2)ccc1OC(F)F
  -3.0 | nt
> CN(C)c1nc2nonc2nc1Nc1ccc(F)cc1
  2.6 | -0.891
> CCOC(=O)NN1C(=O)c2ccccc2NC1c1ccccc1 (configuration not stated)
  -1.0 | 0.0255
> COC(=O)c1cnc(NC(=O)c2ccc3c(c2)S(=O)(=O)N=C2CCCCCN23)s1
  -0.7 | nt
> COc1ccc(Nc2cc(C)c3cc(NC(=O)c4ccco4)ccc3n2)cc1
  -0.4 | -0.252
> COc1ccc(CCNC(=O)CSC2=NCCS2)cc1OC
  1.6 | nt
> O=C(CC1Sc2ccccc2NC1=O)OCN1C(=O)c2ccccc2C1=O (configuration not stated)
  5.4 | nt
> COc1cc(/C=N/S(=O)(=O)CCc2ccccc2)cc(OC)c1O
  0.8 | -0.356
> COc1ccc(NC(=O)CC2SC(=Nc3ccccc3)N(CCO)C2=O)cc1 (configuration not stated)
  -0.3 | -0.265
> Cc1nn(C(=O)CCC(=O)N2CC(C)CC(C)C2)c2ccccc12 (configuration not stated)
  -0.8 | 0.356
> NNCCc1ccccc1
  -0.3&-3.8 | -0.0905&-0.665&-0.527&0.314
> COc1ccc(C2=NN(C(=O)COc3ncnc4ccccc34)C(c3ccco3)C2)cc1 (configuration not stated)
  0.2 | nt
> CC(C)N(CC(=O)Nc1ccc2c(c1)OCCO2)c1ccccc1
  -1.5 | nt
> O=C1C=CC(=O)N1CCNc1ncc(C(F)(F)F)cc1Cl
  nt | -1.24
> CC(=O)NCc1ccc(C(=O)CSc2nc3ccccc3n2-c2ccccc2)s1
  -2.6 | nt
> COC(=O)c1ccc(Nc2cc(C)nc3ccccc23)cc1
  -0.2 | nt
> CCOC(=O)c1ccoc1CN1CCN(c2ccc(F)cc2)CC1
  2.4 | nt
> CC1CN(C(=O)CSCc2ccccc2)CC(C)O1 (configuration not stated)
  -0.2 | 1.26
> C/C(=N\OC(=O)c1ccco1)c1ccccc1O
  4.4 | 0.228
> Cc1ccc(-n2nnnc2SCCN2C(=O)c3ccccc3C2=O)c(C)c1
  -0.4 | nt
> NC(=O)C1CCN(CC(O)COc2ccc(-c3csnn3)cc2)CC1 (configuration not stated)
  2.8 | nt
> NS(=O)(=O)c1ccc(CCNC(=O)c2cc3c(Cl)ccc4c3n2CCO4)cc1
  0.6 | -1.12
> CCCC(CC(=O)N1CCN(C/C=C/c2ccccc2)CC1)n1ccnc1 (configuration not stated)
  0.4 | nt
> C=CCNC(=O)c1cc2c(=O)c3ccccc3oc2nc1C(F)(F)F
  nt | 0.393
> O=C(CSc1nnc(-c2ccc3c(c2)OCO3)o1)c1ccccc1
  0.6 | nt
> CCOc1ccc(Nc2ncccc2C#N)cc1
  3.4 | nt
> O=C(Nc1ccc2nc(-c3cccs3)[nH]c2c1)c1cccs1
  -0.4 | -0.465
> Cc1cc(C)cc(-n2c(C)cc(/C=N/NC(=O)CSc3ncccn3)c2C)c1
  0.5 | -0.0505
> CSc1ccccc1-c1nnc(NC(=O)Cc2ccccc2)o1
  0.9 | -0.206
> Cc1nn(-c2ccccc2)c2c1C=Nc1cc(Cl)ccc1O2
  1.9 | nt
> c1ccc(OCc2nn3cnnc3s2)cc1
  -3.1 | 3.03
> O=C(Nc1ccccc1)c1ncn(-c2ccccc2)n1
  -1.3 | 0.031
> S=c1n(CN2CCCC2)nc2c(Cl)cc(Cl)cn12
  1.9 | nt

Going on with the list:
Below each compound – BasE inh | KSHV LANA nucl
> COC(=O)c1n[nH]c(=O)c2ccccc12
  2.4 | nt
> N#Cc1ccc(S(=O)(=O)N2CCC(N3CCCCC3)CC2)cc1
  -1.9 | -0.713
> C=CCSc1ccc(OCC(F)(F)F)c(C#N)c1OCC(F)(F)F
  -0.1 | nt
> CC(C)c1ccccc1NC(=O)CN1c2ccccc2CC1C (configuration not stated)
  1.3 | nt
> O=C(CSC(=S)N1CCCC1)c1ccccc1
  -3.2 | 1.03
> O=C(CN1C(=O)CSC1=O)NC1CCCCC1
  1.5 | -0.891
> CC(=O)Nc1c(Br)c(C2CC2)nn1-c1ccccc1
  -1.0 | nt
> O=C(NC1(C(F)(F)F)NC(=O)N(Cc2ccccc2)C1=O)c1ccco1 (configuration not stated)
  -2.3 | -0.0185
> c1ccc(C(CNc2ncccn2)c2ccccc2)cc1
  -2.8 | 0.696
> C=CCN(CC(=O)NC1CC1)S(=O)(=O)c1cccc(C(F)(F)F)c1
  1.5 | nt
> CCOC(=O)c1nn(-c2ccccc2)c(C#N)c1N
  -2.0 | 0.46
> COc1ccc(OCc2nc3ccccc3[nH]2)cc1
  1.3 | nt
> COC(=O)COc1ccc2ccc(=O)oc2c1
  -1.2 | nt
> Cc1n[nH]c(=S)n1/N=C/c1c[nH]c2ccccc12
  1.7 | -0.744
> CCCCNC(=O)C1CCN(c2nc(OC)nc(OC)n2)CC1
  -0.5 | 0.48
> N#CCC(=O)N1CCN(C(c2ccccc2)c2ccccc2)CC1
  0.8 | nt
> O=C1CC(C(=O)Nc2ccc3c(c2)OCCO3)n2c(nc3ccccc32)N1 (configuration not stated)
  1.4 | -0.831
> C=CCNc1nc(C(=O)O)cs1
  -1.1 | nt
> O=C(OC1CCS(=O)(=O)C1)c1ccc(Br)o1 (configuration not stated)
  3.6 | nt
> Cc1ccccc1Nc1nc(N)nc(Cn2nc(C(=O)O)c3ccccc3c2=O)n1
  2.4 | nt
> CCN(CC)c1cnn(-c2ccc(C(F)(F)F)cc2)c(=O)c1Cl
  -4.0 | nt
> C=CCc1c(NCCO)nc(C)[nH]c1=O
  1.2 | -0.961
> CC(C)C(c1nnnn1CCc1ccccc1)N1CCCC1 (configuration not stated)
  0.3 | -0.128
> COc1cc(Nc2nc3ccccc3nc2N=CN(C)C)cc(OC)c1OC
  1.0 | nt
> CC1(C)OC(=O)C(=Cc2ccc(-c3ccccc3)o2)C(=O)O1
  -1.4 | 1.65
> COC(=O)C1=C(C)N(C)C(=O)NC1c1ccccc1 (configuration not stated)
  -0.9 | 0.124
